Source: PubChem BioAssay
TAR Tat displ – HIV-1 TAR-Tat binding disruption. HIV-1 TAR RNA, Tat peptide displacement FRET; active compounds read high. z-score (concentration not given with the values). hit rate 0.6% among 100,000. AID 1259389;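 note: score is relative to mean and SD of negative controls; some compounds called inactive have numbers as strong as hits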
CDC25B CDK2 inh – human CDC25B-CDK2/CyclinA binding inhibition. HTRF CDC25B-CDK2/CyclinA binding, anti-His/anti-Flag; active compounds read high. P30305+P24941. z-score (concentration not given with the values). hit rate 0.72% among 94,000;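 note: score is relative to mean and SD of negative controls; strong numbers were not always called active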
Active calls of the source: *; . = not tested or not shown.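 Rule for the calls: active = z-score from 3 up in half or more of its runs; inactive = the rest.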 Compounds as they come; overall some 0.87% were active at least once.

SMILES	TAR Tat displ	CDC25B CDK2 inh
C#CCSc1nc2c(c(=O)[nH]1)C(c1ccc(O)c(O)c1)CC(=O)N2 (stereo not drawn)	27*	19*
Cc1ccc2ccc(C(Nc3ccccn3)c3cccc(O)c3)c(O)c2n1 (stereo not drawn)	.	-1.8
Cc1cc(SCC(=O)O)nc(N)n1	2	-1.1
CCOC(=O)c1c(N)sc(C(=O)N2CCc3ccccc3C2)c1C	2	-0.23
O=C(Nc1nnc2n1CCCS2)c1ccccc1	1.5	.
COc1ccc(-c2noc(COc3cc(C)c(Br)c(C)c3)n2)cc1	-0.15	-0.78
CCCCCCCOC(=O)c1[nH]c2c(c1C)C(=O)CC(c1ccco1)C2 (stereo not drawn)	0.72	-3.5
Cc1nn2c(NCCN(C)C)cc(C(C)(C)C)nc2c1-c1ccc(F)cc1	1.3	-1.1
CN(CC1CCCO1)C1CCN(C(=O)C2CCN(c3ccc(-c4cccs4)nn3)CC2)CC1 (stereo not drawn)	0.64	.
COc1ccc(OC)c(N2C(=O)c3nccnc3C2=O)c1	-0.83	-0.65
CCSCC1COC(c2cccn2Cc2ccc(C)cc2)=N1 (stereo not drawn)	-0.16	-1.4
Cc1cccn2c(=O)c3cc(C(=O)NCc4cccs4)n(C)c3nc12	.	-2.2
Cc1ccc(N2C(=O)N(c3ccccc3C)C3CS(=O)(=O)CC32)cc1Cl (stereo not drawn)	1.2	-1.4
COc1cccc(Nc2nc(NCCCN3CCOCC3)nc3c2cnn3C)c1	1.1	.
CCOC(=O)c1cc(S(=O)(=O)NCc2ccco2)cn1C	1.4	.
Cc1ccc(C)c(C(=O)CC2(O)C(=O)Nc3ccc(Cl)cc32)c1 (stereo not drawn)	-0.27	-0.52
Cc1ccc(Cl)cc1N1CCN(S(=O)(=O)c2ccc(-c3cnc(C4CC4)o3)cc2)CC1	3.4	.
O=C(CC(SCc1ccco1)c1cccs1)c1ccc(Cl)cc1 (stereo not drawn)	-0.59	0.33
O=C(c1ccc2c(c1)OCCO2)c1sc(Nc2ccccc2)nc1-c1ccccc1	.	0.06
Cc1c(C(=O)Nc2ccc(F)cc2)nnn1-c1ccc(Br)cc1	-1.4	-0.64
O=C(CCc1nnc2ccc(NCc3ccccc3Cl)nn12)NCC1CCCO1 (stereo not drawn)	0.91	.
OCc1cnc(SCc2ccccc2F)n1Cc1ccccc1	1.1	.
O=C(NCc1cccc(Br)c1)C1Cc2ccccc2N1C(=O)c1ccccc1 (stereo not drawn)	1.8	.
O=C(CSc1cn(CC(=O)N2CCOCC2)c2ccccc12)NCc1ccco1	0.2	.
CC1(C)N=C(N)NC(Nc2cccc(Cl)c2)=N1	.	1.4

The listing continues:
SMILES	TAR Tat displ	CDC25B CDK2 inh
CCc1nn(CCCC(=O)N2CCC(C)CC2)c(=O)c2cc3oc(C)cc3n12	0.31	2.1
O=C(CCCN1C(=O)c2cccnc2Oc2ccc(Cl)cc21)NCCCN1CCOCC1	-0.51	.
CC(O)(c1ccc(Cl)cc1)C(CN1CCOCC1)c1ccccc1 (stereo not drawn)	0.31	-0.1
N#Cc1nc(-c2ccc(COc3ccc(Cl)cc3)o2)oc1N1CCC(C(N)=O)CC1	-0.98	-1.2
CCN1C(=O)C2(c3ccccc31)C(C(=O)Nc1ccc(C(C)C)cc1)CC1CSCN12 (stereo not drawn)	-0.34	.
CCN(CC)C(=O)CSC1=NS(=O)(=O)c2ccccc2N1	1.5	.
CNC(=O)c1ncnnc1N(C)C(=O)NCc1ccccc1	9.2	-2.1
Cn1c(=O)c2c(nc(NCc3ccc4c(c3)OCO4)n2Cc2cccc(Br)c2)n(C)c1=O	0.87	-0.59
CCOC(=O)c1c(S(=O)(=O)NCC(=O)N2CCOCC2)c(C)n(C)c1C	1.8	.
CC1=C(C(=O)OCCc2ccccc2)C(c2ccc3c(c2)OCO3)C2=C(CCCC2=O)N1 (stereo not drawn)	0.12	-1.5
O=C(NO)c1ncc(C(F)(F)F)cc1Cl	.	-2.1
COc1ccc(-c2nnc3c4cc(OC)c(OC)cc4n(Cc4cccc(OC)c4)cc2-3)cc1	1.9	1.1
COCCn1nnc2cc(S(=O)(=O)N3CCCCC3C(=O)O)ccc21 (stereo not drawn)	0.85	-0.74
COc1ccccc1N1CCN(S(=O)(=O)c2cc(N3C(=O)CCS3(=O)=O)ccc2OC)CC1	1.4	-1.8
COc1ccc(OCCCn2ccnc2)cc1	0.46	-1.1
COc1cc2ncnc(SCC(=O)NNC(=O)C(C)C)c2cc1OC	.	-1.9
Cc1nc(-n2[nH]c(C)c(CC(=O)N3CCOCC3)c2=O)sc1C	-1.9	-2
O=C(CSc1nc(-c2ccco2)cc(C(F)(F)F)n1)NC1CCCC1	.	-0.41
Cc1ccc(Cn2c(=O)c3c(nc4n3CCN4Cc3ccco3)n(C)c2=O)cc1	0.39	-0.11
Cc1ccc(C(=O)N2CCc3ccc(CNS(=O)(=O)c4ccc5c(c4)oc(=O)n5C)cc32)cc1	2.2	.
COc1ccc(CNc2ncnc(N)c2[N+](=O)[O-])cc1	.	-1.2
O=c1[nH]c2ccccc2c2nc(-c3cccc(F)c3)nn12	1.6	-4.8
Cn1c(=O)n(C)c2cc(S(=O)(=O)NCCc3ccccc3)ccc21	3.4	-0.75
CC1=C(C)CC(C(=O)O)C(C(=O)O)C1 (stereo not drawn)	.	-3.2
CCCNC(=O)c1c(O)nc2ccccn2c1=O	-0.06	-2.2

(more compounds)
SMILES	TAR Tat displ	CDC25B CDK2 inh
Cc1nc(-c2ccc(C)c(S(=O)(=O)NCc3cccs3)c2)cs1	0.66	.
Clc1cccc(-c2nnc3sc(-c4cccs4)nn23)c1	1.8	0.55
O=C1CC(c2ccccc2)CC2=C1C(c1ccc3ccccc3c1)Nc1ccccc1N2 (stereo not drawn)	.	-2
CC(=O)NO	0.75	.
CCc1ccc(C2c3c(oc4ccc(C)cc4c3=O)C(=O)N2CCCN(C)C)cc1 (stereo not drawn)	-0.1	-1.6
CCCCCCn1c(CN2CCN(C)CC2)nc2c1c(=O)n(C)c(=O)n2C	-0.92	-0.96
CC(C)NC(=O)C1CCC(Cn2c(=O)c3sccc3n(CC(=O)NC3CCCCC3)c2=O)CC1 (stereo not drawn)	-1.6	.
COc1ccc(-c2nn(C)c3sc(C(=O)O)cc23)cc1OC	.	-0.52
CCc1ccccc1Nc1nc(-c2sc(C)nc2C)cs1	1.2	0.33
CC(=O)NC(=O)/C(C#N)=C/N1CCOCC1	.	-1.4
Cc1ccc(-c2nc3cnccn3c2Nc2c(C)cccc2C)o1	1.7	-0.03
O=C(C1CCN(S(=O)(=O)c2cccc3cccnc23)CC1)N1CCn2c1nc1ccccc12	.	-1.7
COC(=O)C1=C(C)NC(=S)NC1c1cccc(Br)c1 (stereo not drawn)	.	-1.7
O=C(c1ccco1)N(Cc1cccc(F)c1)C1CCS(=O)(=O)C1 (stereo not drawn)	0.7	-1.2
CCN(CC)C(=O)CSCc1cnn(-c2ccccc2)c1-n1cccc1	-0.93	0.12
CC(=O)Nc1ccc(OC(=O)c2ccccc2O)cc1	0.94	.
COCCCNC(=O)Cn1cc(C(=O)C2CC2)c2ccccc21	1.5	-0.97
Cc1c(Cc2ccc(F)cc2)c(=O)oc2cc(OS(=O)(=O)c3cccc(Cl)c3)ccc12	.	-0.55
O=c1ccc(-c2ccc(S(=O)(=O)NCc3ccccc3)s2)n[nH]1	1.1	.
O=C(NC1CCCC1)c1ccc(CS(=O)Cc2cccc(Cl)c2)o1 (stereo not drawn)	1.2	.
O=C(c1cnn2c(C(F)(F)F)cc(-c3ccc(Br)cc3)nc12)N1CCOCC1	0.36	.
COc1ccc(C2/C(=C(\O)c3ccccc3)C(=O)C(=O)N2CCN(C)C)cc1OC (stereo not drawn)	0.57	-1.8
O=C(Oc1ccc(Br)cc1)c1cc(-c2ccc3c(c2)OCCO3)on1	0.97	-1.9
COCCn1c(N2CCOCC2)nc2c1c(=O)n(C)c(=O)n2C	-0.39	3.8
CC1CN(C(=O)CCC(=O)NCc2ccco2)c2cc(Cl)ccc2O1 (stereo not drawn)	0.67	-0.42

Going on with the list.
SMILES	TAR Tat displ	CDC25B CDK2 inh
Cc1ccc(S(=O)(=O)n2nc(-c3ccco3)nc2NCc2ccc(C(C)C)cc2)cc1	0.76	-0.4
CCc1ccc(C2Nc3ccccc3NC3=C2C(=O)CC(c2cccs2)C3)cc1 (stereo not drawn)	.	-1
CC(NC(=O)c1ccc2c(c1)sc1nc(-c3ccccc3)cn12)c1ccc2c(c1)OCCO2 (stereo not drawn)	1.2	.
CCOc1c(N2CCCCC2C)c(=O)c1=O (stereo not drawn)	-0.67	.
CCOc1cc(C2C(C(=O)OC3CCCCC3)=C(C)NC3=C2C(=O)C(C(=O)OC)C(C)C3)ccc1O (stereo not drawn)	0.75	-0.73
COc1ccc(S(=O)(=O)c2cc3ccccc3oc2=O)cc1OC	.	-1.6
COc1ccc2c(c1)c(/C=C/c1nc3ccccc3c(=O)[nH]1)c(C)n2C	2.2	2.6
CCc1ccc(-n2cc3c(=O)n(C)c(=O)n(C)c3c2)cc1	-0.45	-1.4
O=C(Cn1ncc2c([nH]c3ccccc32)c1=O)N1CCC(c2ccccc2)C1 (stereo not drawn)	1.3	.
O=C(CCC(=O)N1CCOCC1)Nc1nc(-c2cc3ccccc3oc2=O)cs1	.	-0.85
COc1ccc(-c2noc(-c3cn(Cc4ccc(N)cc4)cn3)n2)cc1	0.07	-2.4
CCOc1c(N2CCCCC2)c(=O)c1=O	1.2	-1.6
CCc1nnc(NC(=O)c2cc(=O)c3ccc(C)cc3o2)s1	3	-1.7
COc1ccc2c(=O)cc(-c3ccccc3OC)oc2c1	2.9	.
COc1ccc(OC)c(/C=C/c2[nH]c(=O)[nH]c(=O)c2[N+](=O)[O-])c1	2.2	-2.1
CC1CCCN(c2cc(N3CCN(C(=O)c4ccco4)CC3)c3c4c(onc24)-c2ccccc2C3=O)C1 (stereo not drawn)	2.1	-1.3
S=c1[nH]nc(-c2cccc(Br)c2)o1	1.7	-3.9
CCOC(=O)CN1C(=O)CSc2ccccc21	.	-0.69
O=C(CSc1ccsc1[N+](=O)[O-])N1CCN(Cc2ccc3c(c2)OCO3)CC1	1.6	-2.1
COC(=O)c1cc(=O)n2[nH]cnc2n1	0.59	-0.98
Cc1occc1-c1nnc(SCC(=O)NC2CCCCC2)o1	1.2	-0.73
Cc1ccc2nc3c(cc(C#N)c(=O)n3-c3nnc(SCc4ccc(Cl)cc4)s3)c(=O)n2c1	0.13	-34
CC(C)OCCCNc1ncnc2onc(-c3cc(F)cc(F)c3)c12	0.19	.
CC1CCN(C(=O)c2oc3ccccc3c2NC(=O)CCc2nc(-c3cccs3)no2)CC1	0.3	0.79
CCc1nc2ccccc2n1CC(O)COc1c(C)cccc1C (stereo not drawn)	0.09	-0.52

(continued)
SMILES	TAR Tat displ	CDC25B CDK2 inh
CCS(=O)(=O)c1ncc(Cl)c(C(=O)Nc2nnc(CC(C)C)s2)n1	1.8	2.1
CCCCn1c(=O)c2ccccc2n2c(=S)sc(C(=O)OCC)c12	0.98	.
O=C(NCCc1cnc[nH]1)C1CCN(c2nc3cccnc3s2)CC1	2.4	.
Cc1oc(-c2cccs2)nc1Cn1c(=O)cc(C)c2c(C)nn(C)c21	0.78	.
O=C(O)c1cn(-c2ccccc2)cn1	0.73	-0.66
CCOC(=O)N1CCc2ccccc21	2.7	1.3
COc1ccc(C(=O)Nn2c(C)cc(=O)cc2C)cc1	.	-1.9
Cc1cc(C)n2c(SCc3cc(=O)n4cc(C)sc4n3)nnc2n1	0.74	.
CCn1c(COc2cc(C)ccc2C)nnc1SCc1cc(=O)c2cc(OC)ccc2[nH]1	0.22	.
Cn1c(=O)c2c(-c3ccccc3Br)n(-c3ccc(O)cc3)cc2n(C)c1=O	1.8	-1.8
O=C(Nc1ccccc1F)c1cc2n(n1)C(C(F)(F)F)CC(c1ccco1)N2 (stereo not drawn)	-0.49	1.5
Cc1c(Cl)cccc1Nc1ccccc1C(=O)O	1.1	.
O=C(Nc1ccc(Br)cc1)N1CCCC(O)C1 (stereo not drawn)	0.58	-2.4
O=c1c(F)cn(Cc2ccccc2)c(=O)n1Cc1ccccc1	0.68	-0.33
Cc1cccc(N2CCN(S(=O)(=O)c3c(C)nc4sc(C)cn4c3=O)CC2C)c1 (stereo not drawn)	-0.66	.

Structures shown so far containing an aryl methoxy group, in the order listed:
SMILES	TAR Tat displ	CDC25B CDK2 inh
COc1ccc(-c2noc(COc3cc(C)c(Br)c(C)c3)n2)cc1	-0.15	-0.78
COc1ccc(OC)c(N2C(=O)c3nccnc3C2=O)c1	-0.83	-0.65
COc1cccc(Nc2nc(NCCCN3CCOCC3)nc3c2cnn3C)c1	1.1	.
COc1ccc(-c2nnc3c4cc(OC)c(OC)cc4n(Cc4cccc(OC)c4)cc2-3)cc1	1.9	1.1
COc1ccccc1N1CCN(S(=O)(=O)c2cc(N3C(=O)CCS3(=O)=O)ccc2OC)CC1	1.4	-1.8
COc1ccc(OCCCn2ccnc2)cc1	0.46	-1.1
COc1cc2ncnc(SCC(=O)NNC(=O)C(C)C)c2cc1OC	.	-1.9
COc1ccc(CNc2ncnc(N)c2[N+](=O)[O-])cc1	.	-1.2
COc1ccc(-c2nn(C)c3sc(C(=O)O)cc23)cc1OC	.	-0.52
COc1ccc(C2/C(=C(\O)c3ccccc3)C(=O)C(=O)N2CCN(C)C)cc1OC (stereo not drawn)	0.57	-1.8
COc1ccc(S(=O)(=O)c2cc3ccccc3oc2=O)cc1OC	.	-1.6
COc1ccc2c(c1)c(/C=C/c1nc3ccccc3c(=O)[nH]1)c(C)n2C	2.2	2.6
COc1ccc(-c2noc(-c3cn(Cc4ccc(N)cc4)cn3)n2)cc1	0.07	-2.4
COc1ccc2c(=O)cc(-c3ccccc3OC)oc2c1	2.9	.
COc1ccc(OC)c(/C=C/c2[nH]c(=O)[nH]c(=O)c2[N+](=O)[O-])c1	2.2	-2.1
COc1ccc(C(=O)Nn2c(C)cc(=O)cc2C)cc1	.	-1.9
CCn1c(COc2cc(C)ccc2C)nnc1SCc1cc(=O)c2cc(OC)ccc2[nH]1	0.22	.
